# From PubChem BioAssay
# HPGD block: blocks human HPGD enzyme activity; Potency, µM, without a hit: at the top dose activity change, negative = inhibition, actives largely listed as inhibitors; AID 894; 150,000 tested, 4.3% active; purified HPGD, NADH fluorescence kinetic, PGE2 substrate; active = well fitted inhibition curve with a large enough effect (not every such curve was filed as active); inconclusive = small, poorly fitted or top-dose-only effect, or another doubt; inactive = no such curve, though single readings can be large or run the other way;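 note: top concentration of the series not given in the record; plate controls included wells without enzyme; inactives centre near -10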
# Target sequence (P15428 whole entry, looked up): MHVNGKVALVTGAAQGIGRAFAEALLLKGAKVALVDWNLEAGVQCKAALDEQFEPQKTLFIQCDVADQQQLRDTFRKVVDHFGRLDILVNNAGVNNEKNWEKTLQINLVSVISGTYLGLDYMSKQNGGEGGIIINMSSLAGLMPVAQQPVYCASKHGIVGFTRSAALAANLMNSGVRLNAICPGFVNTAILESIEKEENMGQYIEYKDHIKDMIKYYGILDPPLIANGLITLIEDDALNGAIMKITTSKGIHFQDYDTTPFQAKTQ
#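 20 nM HPGD preincubated 15 min at room temperature with compound in 50 mM Tris-HCl pH 8, 0.01% Tween 20. Started with 1 mM NAD+ and 30 uM prostaglandin E2; NADH fluorescence (360/450 nm) read 5 times over 30-s intervals, last minus first.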
# * hit, by the source's call; ? = inconclusive. % is set by controls: 0 for no effect and ±100 for the full control effect; potency is the fitted concentration of half-maximal effect.
SMILES,HPGD block
COc1cc(/C=N/Nc2nc(C)cc(C)n2)ccc1OC(=O)c1ccco1,-5%
O=C(CSc1ncnc2ccccc12)Nc1ccc(N2CCOCC2)cc1,-11%
O=S(=O)(c1ccc(F)cc1)N1CN(Cc2ccco2)c2nc3ccccc3nc21,?
Cn1c(=O)c(-c2cc(F)cc(F)c2)nc2cnc(Oc3cccc(Cl)c3)nc21,-30%
O=C(Nc1ccccc1C(=O)NCc1ccco1)c1ccco1,-16%
CSc1ccccc1NC(=O)CSc1nnnn1-c1ccccc1SC,-13%
COc1ccccc1NC(=S)Nc1cccc2cnccc12,-17%
CCc1cccc(C)c1NC(=O)C1=C(C(=O)O)CCCC1,-8%
CC1CCN(S(=O)(=O)c2ccc3c(c2)c(=O)c(C(=O)NCc2ccco2)cn3C)CC1,-13%
Cc1c(/C=C/C(=O)c2ccc(Cl)s2)cnn1C,?
CCOC(=O)N1CCN(C(=O)CSc2nnc(-c3cccs3)o2)CC1,-17%
CCOc1ccc(C(=O)Nc2cc(-c3nc4ccccc4[nH]3)ccc2Cl)cc1[N+](=O)[O-],?
O=C(Nc1cccc2ccccc12)/C(=C\c1cccc([N+](=O)[O-])c1)NC(=O)c1cccs1,-7%
CCOC(=O)/C(C(=O)Nc1ccccc1Cl)=C1/NC(C)(C)Cc2ccccc21,-26%
Cc1ccc2nc3c(cc2c1)c(NC(=O)c1cccnc1)nn3C,-16%
S=C(NCCC(c1ccccc1)c1ccccc1)Nc1cccc(Cl)c1,-14%
C(=N\N1CCN(Cc2cccc3ccccc23)CC1)/c1cccnc1,-7%

# Of the compounds above, two have an aryl methoxy group.
SMILES,HPGD block
COc1cc(/C=N/Nc2nc(C)cc(C)n2)ccc1OC(=O)c1ccco1,-5%
COc1ccccc1NC(=S)Nc1cccc2cnccc12,-17%

# Gathered by group, the compounds so far with two or more sulfur atoms
SMILES,HPGD block
CSc1ccccc1NC(=O)CSc1nnnn1-c1ccccc1SC,-13%
CCOC(=O)N1CCN(C(=O)CSc2nnc(-c3cccs3)o2)CC1,-17%

# Quoted at random: three records from the list.
SMILES,HPGD block
CSc1ccccc1NC(=O)CSc1nnnn1-c1ccccc1SC,-13%
O=C(CSc1ncnc2ccccc12)Nc1ccc(N2CCOCC2)cc1,-11%
Cc1ccc2nc3c(cc2c1)c(NC(=O)c1cccnc1)nn3C,-16%

# The list is partial (hit frequency here may not be typical).
